Screening results: PubChem, ICCB-Longwood Screening Facility, Harvard Medical School
BasE inh = blocks the Acinetobacter baumannii siderophore enzyme BasE | AID 485350 | inhibition, % (test concentration not listed) | purified BasE, fluorescence polarization binding displacement | hit rate 0.1% among 84,000;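 active = both replicates above 25% with normal brightness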;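 also: 0% = negative plate control signal and 100% = positive plate control signal; stock transfer was 100 nL into about 30 µL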
LANA-nucl inh = inhibitors of KSHV LANA binding to nucleosomes; z-score (test concentration not listed); FITC-LANA1-23 / chicken nucleosome fluorescence polarization; active compounds read low; hit rate 0.3% among 51,000;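 active = both repeat wells score below -2 in polarization z-score versus plate sample wells, excluding overly bright wells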;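 also: 100 nL library stock added to about 30 µL; numbers are from one replicate; some results filed as inactive read as strong as hits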
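System – purified chicken nucleosomes with FITC-labelled LANA N-terminal peptide (1-23) · Amount – 240 nM purified chicken nucleosomes (480 nM peptide binding sites), final · Also added – 50 nM FITC-LANA1-23 probe · Medium – TEN-BT buffer, pH 7.5 · Incubation – compound with peptide–nucleosome mix 10–45 min at room temperature · Detection – fluorescence polarization, ex 480 nm, em 535 nm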
* hit, by the source's call; / = not tested or not shown; & = joins results of further samples. An excerpt; count on the stated rates, not on these rows.

Structure,BasE inh,LANA-nucl inh
Cc1ccc(S(=O)(=O)NN2C(=O)c3ccccc3NC2(C)C)cc1,1.8,-0.51
CCOC(=O)CSc1n[nH]c(=S)s1,2.6,/
O=C(NCCNc1ncc(C(F)(F)F)cc1Cl)C(F)(F)Sc1ccccc1,0.8,/
Nc1ccccc1C(=O)NCC1CCCO1 (stereo not given),-4.5,/
COc1ccc(C2CC(C)=NN2C=O)cc1OC (stereo not given),0.3,/
CC(=O)Nc1ccc(NC(=O)C(Cc2ccccc2)NS(=O)(=O)c2ccc3c(c2)CCC(=O)N3)cc1 (stereo not given),1.7,0.9
COc1ccc(NC(=O)c2c(C)nn(-c3ccc(F)cc3)c2-n2cccc2)c(OC)c1,-4.2,1.9
Cn1nc(-c2ccccc2F)c2cc(C(=O)N3CCc4ccccc4C3)sc21,-0.6,-0.11
CC(C)C(NC(=O)c1ccc(CN2CCN(c3ccccc3)CC2)cc1)C(C)C,1.5,/
Nc1nc2ncc3c(n2n1)CCc1ccccc1-3,-0.2,-0.19
O=c1[nH]c2ccc(Nc3nc(CN4CCOCC4)nc4scc(-c5cccs5)c34)cc2[nH]1,0.9,/
CSc1nc(-c2ccccc2)c(C#N)c(N2CCCCC2)n1,0.8,-2.5
CN(C)S(=O)(=O)N(CC(=O)Nc1ccccc1C(=O)N1CCOCC1)c1ccccc1,-2.4,1.7
CCc1nc2c(sc3nc(C)cc(C)c32)c(=O)o1,0.0,0.86
COc1ccc(-n2cc3ccsc3c2)c(OC)c1,/,0.01
O=C(CNC(=O)c1ccc(Br)cc1)NC1=NCCS1,0.6,/
COC(=O)c1n[nH]nc1C(=O)OC,-0.8,-0.29
CCOC(=O)Cn1nc(C)c(NC(=O)c2ccc(OC)cc2)c1C,1.3,-1.7
O=C(CSc1nnc(-c2ccco2)n1Cc1ccccc1)OCC(=O)c1c[nH]c2ccccc12,-0.7,/
CC(C)OC(=O)CN1CCN(C2CCCCC2)CC1,-1.2,-0.067
CCc1ccc(NS(=O)(=O)c2cc3[nH]c(=O)c(=O)[nH]c3cc2C)cc1,0.4,-0.28
CCOC(=O)c1cc2c(=O)n3ccccc3nc2n(CC(C)C)c1=NC(C)=O,-0.5,-0.19
CCC(=O)N(Cc1nc2ccccc2c(=O)[nH]1)Cc1ccccc1OC,-2.0,-0.25
COc1cc(CN(C)Cc2cc3c(cc2O)OCO3)ccc1OC(F)F,1.5,/
COc1cc(CC(=O)N=c2sc3ccccc3n2C)cc(OC)c1OC,-0.8,/
O=C(Cn1cnc2onc(-c3ccc(F)cc3)c2c1=O)N1CCN(Cc2ccc3c(c2)OCO3)CC1,-2.4,/
Cc1ccc(-n2nc(C)c3c2N2COCN(C3)c3c(c(C)nn3-c3ccc(C)cc3)C2)cc1,2.7,/
Cc1cc(C)c(NC(=O)CN2C(=O)CCC2=O)c(C)c1,2.2,0.18
CC(C(=O)Nc1cccc(N)c1)n1nnc2ccccc21 (stereo not given),5.2,-0.7
CC(O)CCC1CCCO1 (stereo not given),1.2,-0.086
O=c1nc2n(c3ncccc13)CCC2,0.8,/
Cc1ccc(CN(C)c2nc3ccccc3nc2NS(=O)(=O)c2ccc3c(c2)OCCO3)o1,-0.2,/
CCC(C)NC(=O)c1ccc2c(c1)[nH]c(=O)c(=O)n2CC (stereo not given),1.4,/
COc1ccc2nc(SCC(=O)Nc3ccc(N4CCCC4)cc3)c(C#N)cc2c1,-0.1,-0.044
Clc1ncnc2sc3c(c12)CCC3,3.3,-0.27
O=c1cc(CN2CCCc3ccccc32)nc2sccn12,12,-7.9*
C/C(C=NN1CCN(Cc2ccccc2)CC1)=C\c1ccccc1,-0.4,0.17
CC(=O)NCCc1ccc(S(N)(=O)=O)cc1,-1.7,/
c1ccc(C2=Nn3cc(-c4ccccc4)nc3SC2)cc1,-1.5,/
C=CCn1c(-c2ccccc2)n[nH]c1=S,1.4&-1.3,-0.76

Whole records, quoted from the list.
`C=CCn1c(-c2ccccc2)n[nH]c1=S` is entered as BasE inh: 1.4&-1.3; LANA-nucl inh: -0.76
`C/C(C=NN1CCN(Cc2ccccc2)CC1)=C\c1ccccc1` is entered as BasE inh: -0.4; LANA-nucl inh: 0.17

Further entries.
Structure,BasE inh,LANA-nucl inh
CCCCN(c1nc2ccccc2[nH]c1=O)S(=O)(=O)c1ccc(C)cc1,-0.2,/
Cc1ccc(C(=O)OCC(=O)c2ccc(S(=O)(=O)N3CCCCC3)cc2)o1,1.0,/
CC(C)(C)c1cc(C(C)(C)C)n(-c2ccc(N=Cc3ccccc3O)cc2)n1,-1.3,/
N#CCCN(C(=S)Nc1cccc(C(F)(F)F)c1)C1CCCCC1,1.6,/
CCS(=O)(=O)N1CCC(C(=O)O)CC1,-0.8,-1.1
CC(C)c1ccc(-c2noc(COC(=O)c3ccc(S(=O)(=O)NCCC#N)cc3)n2)cc1,1.6,/
S=C(Nc1ccc2c(c1)OCO2)Nc1cnccn1,-1.5,0.07
O=C(Nc1ccc(N2CCOCC2)cc1)C1CC(=O)N(Cc2ccccc2)C1 (stereo not given),1.1,/
Cc1cnc(NC(=O)C2=C(O)c3ccccc3S(=O)(=O)N2C)s1,2.9,-0.18&-0.74&0.56
O=C(O)CCS(=O)(=O)c1cccc2cccnc12,0.5,-0.81
CN(C(=O)COC(=O)c1ccc2c(=O)n3c(nc2c1)CCCCC3)C1(C#N)CCCCC1,0.6,/
CCN(CC)CCCn1c(N)c(-c2nc3ccccc3[nH]2)c2nc(C#N)c(C#N)nc21,14,-1.2
Nc1nccc(-c2nn(-c3ccc(F)cc3)ccc2=O)n1,0.6,0.37
CCOc1ccc2c(c1)C1(C)CC(C)(C)N2C(=O)N1c1ccc(Cl)c(Cl)c1 (stereo not given),0.5,/
CC1CCCCC1Nc1n[nH]c(=S)s1 (stereo not given),-2.3,/
Cc1ccc(OCC(O)Cn2c(=N)n(C)c3ccccc32)cc1 (stereo not given),-6.9,0.49
O=C(Nc1ccccc1F)c1ccc2snnc2c1,-0.1,0.48
COC(=O)N/N=C\c1c(C)n(Cc2ccccc2)c2ccccc12,0.1,-0.26
CCn1nnc2cc(C(=O)Nc3ccc(C(=O)OC(C)C)cc3)ccc21,-1.7,/
CCCCNC(=S)NC1CCCC1,1.4,-0.78
COc1ccc(CN=CC2=C(O)CC(C)(C)CC2=O)cc1,0.9,/
CN(C)/C=C(\C#N)C(=O)N(C)c1ccc(F)cc1F,-5.5,1.4
COCCN(Cc1cc2c(C)cc(C)cc2nc1Cl)C(=O)c1ccco1,-3.5,-0.21
COC(=O)c1sccc1NC(=S)N1CCCCC1,-0.7,-0.77
CCSc1nnc(-c2cccc(S(=O)(=O)N3CCOCC3)c2)n1-c1ccc(F)cc1,0.9,/
COc1ccc(N2CCN(Cc3nnnn3CCc3ccccc3)CC2)cc1,0.8,0.65
CC1C(=O)OC2(C)CC(C)(C)NC(=S)N12 (stereo not given),1.5,0.5
Cc1c(C(=O)NC2CCOc3ccccc32)oc2ccccc12 (stereo not given),0.8,/
O=C(CSc1nnc(-c2ccccc2F)o1)Nc1ccc(S(=O)(=O)NC2=NCCCCC2)cc1,-0.8,/
CN(C)CC/C=C1/c2ccccc2CSc2ccccc21,-4.4,0.061
COc1ccccc1NC(=O)C1CC=CCC1C(=O)O (stereo not given),/,0.13
CN(C)c1ccc(C=NCCCN2CCOCC2)cc1,-7.6,1
N#Cc1ccc(C(=O)NCC2CCCCC2)cc1,-2.6,/
O=c1cc(O)nc(-c2ccc(Cl)cc2)s1,/,-1.4
N/N=C(/C(=N/N)c1ccccc1)c1ccccc1,1.1,/
O=C(CN1CCCCCCC1)Nc1ccc2c(c1)OCO2,-0.2,1
Cc1cc(-c2csc(-c3cccnc3)n2)c(C)n1C,3.7,/
Cc1nc2scc(-c3ccccc3)c2c(=O)n1/N=C/N(C)C,2.2,/
COc1cccc(CN(C)C(=O)C2CC(=O)N(CCc3ccccc3)C2)c1 (stereo not given),-1.1,/
CCOC(=O)c1cc(-c2ccccc2)n(CC(=O)NC(C)(C)C)c1C,-0.4,-1.1

Copied from the list.
Result for COc1ccc(N2CCN(Cc3nnnn3CCc3ccccc3)CC2)cc1 in LANA-nucl inh: 0.65
Result for COC(=O)c1sccc1NC(=S)N1CCCCC1 in LANA-nucl inh: -0.77

More records:
Structure,BasE inh,LANA-nucl inh
C=CCN(Cc1nc(-c2ccc(C)cc2)no1)C(=O)C1CCCCC1,1.0,0.0025
CC(=O)Nc1c(C(=O)N2CCN(C(=O)c3ccco3)CC2)oc2ccccc12,1.6,/
Cc1ccc(S(=O)(=O)/N=C(\N)Nc2nc3ccccc3o2)cc1,-0.7,-0.28
O=C(N/N=C/C1=C(Sc2nc3ccccc3o2)CCCC1)c1ccncc1,1.2,/
COC(=O)c1c[nH]c(=S)n1C,-1.6,/
Cc1cc(-c2nc3ncccc3o2)ccc1NC(=O)c1ccccc1,-2.6,0.4
CCCOc1ccc(-c2nc(=S)[nH][nH]2)cc1,0.8,-0.42
CC(Oc1ncnc2ccccc12)C(=O)Nc1ccccc1F (stereo not given),1.2,/
Cc1ccc(C(=O)Oc2ccc(/C=N/NC(N)=O)cc2)cc1,1.9,-0.2
O=C(CN1CCCCC1)N1N=C2c3ccccc3CCC2C1c1ccc(F)cc1 (stereo not given),/,1.4
Cc1cnc(C(=O)Nc2ccc(S(=O)(=O)NC(C)C)cc2)cn1,0.2,0.58
O=c1[nH]nc(-c2nnc3n2-c2ccccc2SC3)c2ccccc12,1.1,/
O=C(OCC(=O)c1ccc[nH]1)c1ccc(S(=O)(=O)N2CCCCC2)cc1,1.9,/
CCC1CCCCN1C(=O)Cn1c(C(=O)OC)cc2sccc21 (stereo not given),-1.3,0.7
O=C(Nc1cccnc1)c1cc(=O)c2ccccc2o1,6.1,0.053
COC(=O)c1ccc(-n2c(C)cc3ccccc32)s1,0.6,1.1
CCN(CC)c1nc(C(=O)Nc2ccc(Br)cc2)cs1,2.4,/
Cc1cccn2cc(CNC(=O)C3CCCCC3)nc12,1.0,0.43
CN=C(NC#N)NCCSCc1nc[nH]c1C,1.0,0.74&-0.17&0.015
Cc1ccc(S(=O)(=O)c2ccccc2)cc1S(=O)(=O)N1CCCCC1,-1.5,-1.7
C/C(=N\O)C12CC3(C)CC(C)(CC(C)(C3)C1)C2,-1.4,/
Cc1nnc(N/N=C/CCc2ccccc2)[nH]c1=O,1.7,-0.66
CN(Cc1ccccc1)CN1C(=O)NC(C)(c2ccccc2)C1=O (stereo not given),-5.0,/
Cc1nc2cc(Cl)ccc2c(=O)n1CC1CCCO1 (stereo not given),1.3,/
COc1nc(Oc2ccc(/C=N/O)cc2)nc(N(C)C)n1,-0.4,/
CCC1CCCCN1CC(O)COCc1cccc(OC)c1 (stereo not given),0.3,/
CCn1c(=O)c(=O)[nH]c2c(=O)oc3ccc(S(=O)(=O)Nc4ccc(OC)cc4)cc3c21,1.7,0.78
NC(=O)c1cnn(Cc2ccccc2)c1N,2.2,/
CCOC(=O)c1cccc(Nc2ncnc3ccccc23)c1,0.8,0.099
Clc1ccc(Cn2cccn2)cn1,/,2.6
COC(=O)c1cc(S(=O)(=O)Nc2ccc(C(C)C)cc2)c[nH]1,0.5,-0.53
Cc1ccc2c(c1)C(O)(C(=O)NC(N)=O)C(=O)N2 (stereo not given),1.8,0.013
CNCCNS(=O)(=O)c1ccc(N2C(=O)CC3(CCCC3)C2=O)c(Cl)c1,-1.2,0.14
COc1ccc2oc(=O)c(C(=O)OCCN3CCN(S(=O)(=O)c4ccccc4)CC3)cc2c1,4.9,0.84
COc1ccc(C)cc1-n1nnnc1SC(C)C(=O)NCc1ccco1 (stereo not given),-5.1,/
On1c2c(c3c4nonc4ccc31)CCCC2,-2.4,0.31
CCOC(=O)c1c(C)[nH]c(C(=O)COc2ccccc2OCC)c1C,-1.3,/
NC(=S)N=Nc1c(O)[nH]c2ccccc12,9.7,0.9
N#CCCSc1nnc(-c2ccc(Cl)cc2)o1,-0.7,/
CCC(CC)c1nn2cc(-c3ccc(C)c(C)c3)nc2s1,-2.7,-0.56

Ordered by the number under LANA-nucl inh (largest number first): some entries from above
mol | LANA-nucl inh
CNCCNS(=O)(=O)c1ccc(N2C(=O)CC3(CCCC3)C2=O)c(Cl)c1 | 0.14
CCOC(=O)c1cccc(Nc2ncnc3ccccc23)c1 | 0.099
COC(=O)c1cc(S(=O)(=O)Nc2ccc(C(C)C)cc2)c[nH]1 | -0.53

Other results.
Structure,BasE inh,LANA-nucl inh
OC(CSc1nc(-c2ccccc2)ns1)C(F)(F)F (stereo not given),1.1,0.053
Cc1ccc2c(c1)OC(=O)CC2c1ccccc1 (stereo not given),-1.1,/
O=C(NC1CCCCC1)C(=S)NC1CCCC1,-2.3,0.32
O=C(NCc1cccs1)C1CCC(CNS(=O)(=O)c2cccc3nsnc23)CC1 (stereo not given),0.7,-1.2
CCc1nc2cc(N)ccc2n1C,1.7,1.1
COC(=O)CSc1nnc(CNC(=O)c2cccs2)n1C,-0.8,0.33
CCOc1cc(/C=C/C(=O)C2C(=O)C=C(C)OC2=O)cc(Br)c1O (stereo not given),-5.4,/
